Source: PubChem BioAssay (National Center for Advancing Translational Sciences (NCATS))
HSD17B inhib = inhibitors of human HSD17B10 dehydrogenase. Potency, µM (top dose mostly 57.1 µM), for the others: at the top dose activity change, negative = inhibition, actives largely listed as inhibitors. Q99714. 75,000 tested, 7.6% active. recombinant HSD17B10, NADH fluorescence kinetic; many of its hits are not listed in these tables; active means well fitted inhibition curve with a large enough effect; inconclusive means small, poorly fitted or top-dose-only effect; inactive means no such curve, though single readings can be large or run the other way;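 further: the protocol describes HADH2 (HSD17B10) and not the HSD17B4 of the title; nearly all actives have a fitted effect of over 70% in size; most hits overshoot -100% by far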
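His-tagged E. coli-expressed HADH2 at 20 nM in 100 mM Tris-HCl pH 9.0 with 0.01 % Tween-20, preincubated 15 min with compound at room temperature. Reaction with 1 mM NAD+ and 90 uM beta-hydroxybutyryl coenzyme A; NADH fluorescence (360/450 nm) read kinetically over 4 min, last minus first point.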
Active calls of the source: *; ? = inconclusive; [ ] = another dose, or the depositor's remark. On the % scale 0 is the no-effect control and ±100 the full control effect; potency means the concentration at half of the fitted maximal effect.

SMILES	HSD17B inhib
COC(=O)[C@@]1(Cc2ccccc2)[C@H]2c3cc(C(=O)N(C)C)n(C[C@H](O)CO)c3C[C@H]2CN1C(=O)c1ccccc1	2%
COc1cccc(C2C(C(=O)c3ccco3)=C(O)C(=O)N2CCCN2CCOCC2)c1OC (stereo not drawn)	4%
C=CCOC(=O)c1ccccc1C(=O)OCC=C	2%
CCCC(=O)Nc1ccc(OCC(=O)OC)cc1	5%
O=c1c2cnn(-c3ccc(F)cc3)c2ncn1Cc1cccnc1	-5%
O=C(NC1CCc2ccccc21)C1CCN(S(=O)(=O)c2ccc(-n3cnnn3)cc2)CC1 (stereo not drawn)	-2%
O=C(Cc1ccccc1)NC(NCCCN1CCOCC1)(C(F)(F)F)C(F)(F)F	4%
COc1ccc(S(=O)(=O)NCCC(=O)NC(C)c2ccccc2)cc1 (stereo not drawn)	7%
COc1ccccc1CNC(=O)c1nnc(Cc2ccc(Cl)cc2)o1	-2%
N#Cc1ccccc1-c1ccc2ncnc(NCc3cccs3)c2c1	25µM*
COc1cc(CNc2ccc(N3CCOCC3)c(C(=O)O)c2)ccc1OCC(N)=O	32µM*
CCOC(=O)C1CCN(C(=O)CSc2n[nH]c(=O)[nH]c2=O)CC1	1%
CC(C)c1ccc(NC(=O)C2CC(=O)N(C(C)C)C2)cc1 (stereo not drawn)	-12%
O=C(Cn1cc2c(n1)CCCC2)NCc1cccs1	2%
COc1ccc(C(=O)N2CCC[C@@]3(CCN(CC(C)C)C3)C2)cc1	2%
On1onc2c3cc(-c4ccccc4)nc3ccc21	-8%
COc1ccc(-c2cc(=O)c3cc(OC)ccc3o2)cc1	2.5µM*
O=S(=O)(c1ccc(-n2cnnn2)cc1)N(C1CCCCC1)C1CCCCC1	-2%
CN(C)c1ccc(C(=O)OCC(=O)NC2CCCCC2)cc1	-22%
Cn1c(C(=O)N2CCN(Cc3ccc4c(c3)OCO4)CC2)cc2sccc21	10%
Cc1ccc(CNC(=O)C2CCC(=O)N2C2CCCCC2)cc1 (stereo not drawn)	11%
COc1ccc(-c2nnc(SCC(=O)Nc3ccccc3)n2C)cc1	11%
CC1(N2CCOCC2)CC2(O)C(=[N+]1[O-])CCc1c2no[n+]1[O-] (stereo not drawn)	3%
COc1ccc2nc(NS(=O)(=O)c3ccc(NC(C)=O)cc3)sc2c1	-2%
CCOC(=O)N1CCN(C(=O)c2c(O)c3cccc4c3n(c2=O)CC4)CC1	13%
Cc1nc(N[C@@H](Cc2c[nH]c3ccccc23)C(=O)O)c2oc3ccccc3c2n1	-19%
CC(=O)N1CCC2(CCCN(C(=O)Nc3cccc(F)c3)C2)CC1	6%
Cn1c(=O)c2c(nc(CN3CCc4ccccc4C3)n2Cc2ccccc2)n(C)c1=O	?
CC(C)[C@@H]1NC(=O)[C@H](CCCCN)NC(=O)[C@H](Cc2c[nH]c3ccccc23)NC(=O)[C@H](Cc2ccc(O)cc2)NC(=O)[C@H](C)N(C)C(=O)[C@H](Cc2ccccc2)NC1=O	6%
COC(=O)c1[nH]c2ccc(Br)cc2c1NC(=O)CN1CCN(C2CCCCC2)CC1	-9%
O/N=C1\CC2(Cc3nonc31)OCCO2	-4%
Clc1ccc(SCCCCn2ccnc2)cc1	1%
COc1cccc(C(=O)NCCn2ccc3ccccc32)c1	-2%
Oc1ccc(-c2n[nH]c(=S)n2Cc2ccccc2)cc1	?
Cc1ccc(Nc2c3c(nc4ncnn24)CCC3)cc1	-1%
COc1n[nH]c2nncnc12	1%
COc1ccc(S(=O)(=O)Nc2nc(C(F)(F)F)cs2)cc1	0%
CCCC(=O)c1c(C)c2ccccc2n1C	-7%
CN1CCN(C(=O)c2cc(-c3ccccc3)on2)CC1	10%
CC(C)C(NS(=O)(=O)c1ccc2c(c1)oc(=O)n2C)C(=O)N1CCN(Cc2ccccc2)CC1 (stereo not drawn)	14%
NC(=O)Nc1n[nH]c(-c2ccccc2)n1	3%[11.4 µM]
COc1ccc(C(=O)n2nc(-c3ccc(Cl)cc3)nc2N)cc1OC	-6%
Cc1cccc(C2CC(c3ccc(Br)cc3)Nc3nc(N)nn32)c1 (stereo not drawn)	-3%
CCCn1nc(C(=O)N2CC(=O)Nc3ccccc32)c2ccccc2c1=O	1%
COc1ccccc1NC(=O)CSc1ncn[nH]1	4%
C[C@H](N=C(NC#N)Nc1ccncc1)C(C)(C)C	?
CCn1c(CNc2ccccc2Cl)nnc1SCC(=O)NCc1ccccc1	2%
COC(=O)c1cc(S(=O)(=O)N2CCOCC2)ccc1Sc1ccccc1N	-15%
COC(=O)CCCC(=O)O	0%[11.4 µM]
COc1cc(NC(=O)C2CCN(S(=O)(=O)c3ccc(Cl)cc3)CC2)ccc1-n1cnnn1	-10%
(more compounds)
SMILES	HSD17B inhib
CC(C)(C)NC(=O)Cn1c(SCC(=O)NC2CCCCC2)nc2ccccc21	4%
CCOc1ccc(OCC)c(Nc2cc(C)nc3ncnn23)c1	4%
CCOc1cc2[nH]c(=S)n(CC3CCCN3CC)c(=O)c2cc1OCC (stereo not drawn)	9%
O=C(CSC1=NCCS1)Nc1nc(-c2ccccc2)cs1	-6%
Cn1c(=O)c2c(nc(CN3CCOCC3)n2Cc2ccccc2)n(C)c1=O	4%
CCOc1ccc(NC(=O)CSc2nnc(Cc3cccn3C)n2-c2ccc(F)cc2)cc1	4%
O=c1[nH]c(SCCOc2ccccc2)nc2ccccc12	1%
CS(=O)(=O)N1CCN(c2ccccc2NC(=O)c2cccs2)CC1	2%
CCn1c(=Nc2ccc(N3CCOCC3)cc2)ccc2ccccc21	-3%
COc1ccc(-c2cc(N3CCCC3)n3ncnc3n2)cc1	25µM*

Shown with bars between the fields: part of the list above.
Molecule | HSD17B inhib
CCOc1cc2[nH]c(=S)n(CC3CCCN3CC)c(=O)c2cc1OCC (stereo not drawn) | 9%
CC(C)(C)NC(=O)Cn1c(SCC(=O)NC2CCCCC2)nc2ccccc21 | 4%
CCOc1ccc(OCC)c(Nc2cc(C)nc3ncnn23)c1 | 4%

Next section
SMILES	HSD17B inhib
CCC(C)(C(=O)NC1CCCC1)N(C(=O)c1ccccn1)c1ccccc1 (stereo not drawn)	5%
CNc1ncnc2c1ncn2[C@@H]1O[C@@H](CO)[C@H](O)[C@@H]1O	8%
N#CC1(Nc2ccc(-c3ccc(NC4(C#N)CCCC4)cc3)cc2)CCCC1	9%[11.4 µM]
CC(C)c1ccc(NC(=O)C2CCN(S(C)(=O)=O)CC2)cc1	5%
CCOC(=O)N1CCC(NC(=O)C2CCN(S(=O)(=O)N3CCCC3)CC2)CC1	6%
COc1ccc(C(=O)N2CCN(C(C)=O)CC2)cc1S(=O)(=O)NCc1ccc(Cl)cc1	4%
Cc1cc(OCCCCCNCCO)cc(C)c1Cl	-15%
Cc1noc(C)c1C(=O)NCc1cccs1	3%
COc1ccc(-c2csc(Cc3nnc4n3CCCCC4)n2)cc1	16%
Cn1c(=O)oc2cc(S(=O)(=O)N3CCC4(CC3)OCCO4)ccc21	4%
O=C(O)[C@H]1CN(C/C=C/P(=O)(O)O)CCN1	4%
COc1cc(OC)c(C(=O)COc2ncnc3ccccc23)c(OC)c1	8%
CCc1ccc2oc(=O)cc(CN(C)Cc3ccccc3)c2c1	-13%
O=C(NCCc1cn2ccccc2n1)C1CCCCC1	32µM*
CCOC(=O)N1CCC(NC(=O)c2ccc(CS(=O)(=O)c3c(Cl)cccc3Cl)o2)CC1	-3%
Cc1cc(C)nc(SCCn2c(N3CCCCC3)nc3c2c(=O)n(C)c(=O)n3C)n1	5%
CCOC(=O)C1C(c2cccs2)NC(=O)NC1(O)C(F)(F)F (stereo not drawn)	-2%
O=C(CN1C(=O)C2C3C=CC(C3)C2C1=O)Nc1cccc2c1CCCC2 (stereo not drawn)	1%
NC(=O)SC/C(=N\S(=O)(=O)c1ccccc1)Nc1ccccc1	8%
COc1ccccc1NC(=O)CSc1nnc(Cc2cccn2C)n1CCc1ccccc1	?
CC(C)OC(=O)c1nnn(-c2nonc2N)c1CN1CCc2ccccc2C1	-6%
COc1ccc(OCC(=O)Nc2ccc3c(c2)nc2n3CCSC2)cc1	?
COc1ccccc1N1CCN(C(CNC(=O)c2ccc3c(c2)OCO3)c2cccnc2)CC1 (stereo not drawn)	10%
CCCOC(=O)C1C2C=C[C@]3(CN(CCc4ccccc4)C(=O)[C@H]13)O2 (stereo partly drawn)	-9%
O=C(Nc1ccon1)c1sc2ccccc2c1Cl	-19%
Cc1cccc2cc(COC(=O)C(C)(C)C)c(=O)[nH]c12	-1%
O=C(c1ccccc1)c1nc[nH]c1C(=O)Nc1ccccc1	16µM*
O=C1CCC(=O)N1CC(=O)N1c2ccccc2Sc2ccccc21	-2%
Cc1ccc(CCNC(=O)C2CCCN(S(=O)(=O)c3c(C)noc3/C=C/N(C)C)C2)cc1 (stereo not drawn)	0%
O=C(COc1ccc(Cl)cc1Cl)NCCCn1ccnc1	-2%
CCc1nnc(NC(=O)C2CCN(S(=O)(=O)Cc3ccccc3)CC2)s1	-8%
COC(=O)c1ccc(N2C(=O)CC(N(C)CCc3ccc(OC)c(OC)c3)C2=O)cc1 (stereo not drawn)	3%
COc1cccc(/C=N/n2c(SC)nnc2-c2ccccc2)c1O	-1%
CCN(CC)S(=O)(=O)c1ccc(NC(=O)COc2c(OC)cccc2OC)cc1	0%
CCOC(=O)N1CCN(C(=O)CCSCCc2ccncc2)CC1	2%
COc1ccc2c(c1)CCc1c(C(=O)Nc3ccn(Cc4ccc(C)cc4)n3)noc1-2	-7%
COc1ccc(-c2csc(NC(=O)Cn3nc(C)cc3C)n2)cc1	0%
COC(=O)C1C(=O)CC(C)(O)C(C(=O)OC)C1/C=C/c1ccccc1 (stereo not drawn)	11%
c1ccc2[nH]c(-c3nc4ccccc4[nH]3)nc2c1	25µM*
CCCCN1C(=O)c2ccc(C(=O)NC3=NCCS3)cc2C1=O	3%
Cc1ccc(C)c(N2CCN(S(=O)(=O)c3ccc4[nH]c(=O)c(=O)[nH]c4c3)CC2)c1	25µM*
Cc1ccc(CN(Cc2cccnc2)C(=O)CN2C(=O)COc3ccccc32)o1	13%
CCOC(=O)C1CCCN(CCC(=O)Nc2ccc(F)c(F)c2)C1 (stereo not drawn)	-3%
CCCc1c(O)nc(SC2CC(=O)N(c3cc(OC)ccc3OC)C2=O)[nH]c1=O (stereo not drawn)	-27%
O=c1c(-c2cccc(Cl)c2)nc2cncnc2n1Cc1ccccc1	-14%
Cc1cc(=O)[nH]c2cc(Cl)ccc12	-16%
O=C(CCc1ccc(S(=O)(=O)N2CCOCC2)cc1)OCc1nc2ccccc2s1	1%
CCCn1nnc(NC(=O)c2ccc(Cl)cc2Cl)n1	8%
COc1cccc2cc(C(=O)N3CCN(c4ncccn4)CC3)c(=O)oc12	-6%
COc1ccc(NC(=O)c2ccc(CN3CCN(c4ccccc4)CC3)cc2)cc1	-2%
(continued)
SMILES	HSD17B inhib
O=C(NC1CCCCC1)N(Cc1cc2cc3c(cc2[nH]c1=O)OCCO3)CC1CCCO1 (stereo not drawn)	32µM*
COc1ccccc1OCCSc1ncnc2nc[nH]c12	2%
CCOC(=O)C1(CC)NC(c2cccc(F)c2)C2C(=O)N(CC)C(=O)C21 (stereo not drawn)	9%
COc1cc(C)c(CN2CCCCC2CO)cc1C (stereo not drawn)	0%
Cc1c(C(=O)NCc2cccnc2)oc2ccc(S(=O)(=O)N3CC(C)CC(C)C3)cc12 (stereo not drawn)	2%
CCOC(=O)c1sc2nc(SCC(=O)NCc3ccco3)n(Cc3ccccc3)c(=O)c2c1C	-8%
O=C(CC1SC(=O)N(c2ccccc2)C1=O)Nc1ccccc1 (stereo not drawn)	-4%
CCCC(=O)Nc1ccc(NC(=O)C23CC4CC(CC(C4)C2)C3)cn1	1%
COC(=O)C1=C(C)NC(C)=C(C(=O)OC)C1C1CC=CCC1 (stereo not drawn)	-15%
NC(=O)C1CCN(CCCNC2CC(=O)N(Cc3ccc(N4CCCC4=O)cc3)C2=O)CC1 (stereo not drawn)	-10%
N#CC1=C(N)C2=C(N3CCCCC3)CCCC2C1(C#N)C#N (stereo not drawn)	?
CC(=O)Cn1c(C(F)(F)F)nc2ccccc21	10%
CN1/C(=C/C(=O)C2CCC2)Sc2ccccc21	?
O=C1CC(C(=O)Nc2ccc(Br)cc2)C2(CCCC2)O1 (stereo not drawn)	?

Structures above containing an aryl thioether with sulfur outside any ring, in the order listed:
SMILES	HSD17B inhib
CCOC(=O)C1CCN(C(=O)CSc2n[nH]c(=O)[nH]c2=O)CC1	1%
COc1ccc(-c2nnc(SCC(=O)Nc3ccccc3)n2C)cc1	11%
Clc1ccc(SCCCCn2ccnc2)cc1	1%
COc1ccccc1NC(=O)CSc1ncn[nH]1	4%
CCn1c(CNc2ccccc2Cl)nnc1SCC(=O)NCc1ccccc1	2%
COC(=O)c1cc(S(=O)(=O)N2CCOCC2)ccc1Sc1ccccc1N	-15%
CC(C)(C)NC(=O)Cn1c(SCC(=O)NC2CCCCC2)nc2ccccc21	4%
CCOc1ccc(NC(=O)CSc2nnc(Cc3cccn3C)n2-c2ccc(F)cc2)cc1	4%
O=c1[nH]c(SCCOc2ccccc2)nc2ccccc12	1%
Cc1cc(C)nc(SCCn2c(N3CCCCC3)nc3c2c(=O)n(C)c(=O)n3C)n1	5%
COc1ccccc1NC(=O)CSc1nnc(Cc2cccn2C)n1CCc1ccccc1	?
COc1cccc(/C=N/n2c(SC)nnc2-c2ccccc2)c1O	-1%
CCCc1c(O)nc(SC2CC(=O)N(c3cc(OC)ccc3OC)C2=O)[nH]c1=O (stereo not drawn)	-27%
COc1ccccc1OCCSc1ncnc2nc[nH]c12	2%
CCOC(=O)c1sc2nc(SCC(=O)NCc3ccco3)n(Cc3ccccc3)c(=O)c2c1C	-8%

Only part of the results is shown, so the mix of outcomes need not match the whole.
